Bioassay records from PubChem.
AmpC nodet inh: Promiscuous and Specific Inhibitors of AmpC Beta-Lactamase (assay without detergent). AmpC nitrocefin hydrolysis, absorbance 480 nm, no detergent; potencies from a single point are estimates. Potency, µM (highest dose often 28.7 µM), for the others: at the top dose activity change, negative = inhibition. 1.8% of 71,000 active; active = falling curve, for most hits resting on a single point; inconclusive = weak or doubtful change; inactive = flat or rising curve; also: % of control where 0% means no effect; about half of the hits show no inhibition at the top dose; a quarter of the inactives give rising signals
Target sequence (P00811 whole entry, looked up): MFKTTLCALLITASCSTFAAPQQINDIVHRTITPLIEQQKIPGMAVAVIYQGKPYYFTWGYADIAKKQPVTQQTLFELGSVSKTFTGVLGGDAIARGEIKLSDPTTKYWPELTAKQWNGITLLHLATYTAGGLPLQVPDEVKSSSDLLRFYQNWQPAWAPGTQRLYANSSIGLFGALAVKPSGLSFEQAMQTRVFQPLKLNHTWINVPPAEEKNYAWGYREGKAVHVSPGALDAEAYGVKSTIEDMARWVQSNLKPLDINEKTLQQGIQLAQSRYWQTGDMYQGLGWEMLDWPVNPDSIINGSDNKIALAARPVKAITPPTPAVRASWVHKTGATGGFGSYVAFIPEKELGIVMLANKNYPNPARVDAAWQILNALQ
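Enzyme, pH 7.0 phosphate. Compound titrations were pre-incubated with AmpC for 15 min at room temperature before nitrocefin (stock 800 uM) addition; product formation was recorded at 480 nm every 20 s for 4 min.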
Starred values were filed as active, the others as inactive; & = joins results of further samples; [ ] = another dose, or the depositor's remark. Potency is read from the fitted curve at half-maximal effect. Some of the compounds tested. The share of hits here may be higher or lower than overall.

SMILES | AmpC nodet inh
COc1ccc(C(c2nnnn2Cc2ccc(F)cc2)N2CCN(c3ccccc3)CC2)cc1 (stereo unspecified) | 16%
CCCC(=O)NC(C)c1nc2ccccc2n1CC (stereo unspecified) | 12%
CC(C)c1cc(C(=O)N2CCN(C(c3ccccc3)c3ccccc3)CC2)no1 | 48%
CC(Sc1ccc2nnc(-c3ccc(F)cc3)n2n1)C(=O)O (stereo unspecified) | 0%
C#CCOCCCC(=O)O | 0%[5.75 µM]
CC1CC(C)CN(c2nc3c(c(=O)[nH]c(=O)n3C)n2CCCSc2nc3ccccc3s2)C1 (stereo unspecified) | 56%
O=C(Nc1ccccc1)c1cccc(N2CCCC2=O)c1 | 38%
N#Cc1nc(-c2ccc(F)cc2)oc1NCc1cccc2c1OCO2 | -22%
O=C(C1CCC(C(=O)N2CCCCC2)CC1)N1CCCCC1 (stereo unspecified) | 21%
CCN1CCCC1CN(Cc1cc2cc(C)ccc2[nH]c1=O)C(=O)Nc1ccccc1OC (stereo unspecified) | 56%
CCOC(=O)c1c(C)c2c(n1C)CCC/C2=N\O | -15%
Cn1c(=O)n(C)c2cc(S(=O)(=O)N3CCOCC3)ccc21 | -18%
c1ccc(Cn2c(Nn3cnnc3)nc3ccccc32)cc1 | 23%
CN(C)C(=O)c1ccc(-c2nc(N(C)C)c3ccccc3n2)cc1 | 65%
N#CC(C(=O)OC1CCCCC1)c1nc2ccccc2nc1N1CCOCC1 (stereo unspecified) | 57%
COc1cccc(-c2nnc(SCC(=O)N3CCOCC3)o2)c1 | 9%
C=CCNC(=O)C1CC(=O)N(c2ccc(OCC(=O)NCc3ccccc3)cc2)C1 (stereo unspecified) | 6%
COc1cc(Nc2cc(C)nc3ncnn23)cc(OC)c1 | 8%
COc1cccc(OC)c1C(=O)N1CCOCC1 | 1%
CCSc1nnc(NC(=O)CSc2nnc(Cc3cccn3C)n2-c2ccc(F)cc2)s1 | 38%
COc1ccc(Cl)cc1N(C)C(=O)CCc1nc(-c2ccc(C)cc2)no1 | 98%
N[C@@H](C(=O)O)c1ccc(C(=O)O)c(O)c1 | 2%
Cc1noc(C)c1S(=O)(=O)N1CCCC(C(=O)Nc2cccnc2)C1 (stereo unspecified) | -5%
CC(=O)N1CCc2cc(Br)cc(S(=O)(=O)NCCN3CCCCC3C)c21 (stereo unspecified) | -5%
COc1ccc(-c2noc(CN(C(=O)c3ccc(OC(C)=O)cc3)C(C)C)n2)cc1OC | 89%
Cc1cccc(NC(=O)C2CCN(S(=O)(=O)c3cccc4cccnc34)CC2)c1 | -2%
CC(C)(C)c1ccc(-c2nnc3sc(-c4ccncc4)nn23)cc1 | 16%
O=C(Nc1ccccc1C(F)(F)F)c1cc(S(=O)(=O)N2CCOCC2)ccc1F | 22%
COc1ccc(NC(=O)N2CCCC3(CCN(C(=O)c4cccc(F)c4)CC3)C2)cc1 | 45%
COC(=O)c1cccc(S(=O)(=O)N2CCN(c3nc4ccccc4s3)CC2)c1 | 39%
Cc1ccc(NC(=O)CN2C(=O)NC3(CCC(C)CC3)C2=O)c(Cl)c1 (stereo unspecified) | -3%
Cc1cccc(C)c1NC(=O)CSc1nnc(-c2ccoc2C)n1C | 1%
Cc1ccc(NC(=O)c2ccc(F)c(S(=O)(=O)N3CCOCC3)c2)cc1F | 2%
Cc1cc(C)c(NC(=O)CN2CCN(C)CC2)c(C)c1 | 0%
CN(CC[C@@H](Oc1ccc(-c2ccccc2)cc1)c1ccc(F)cc1)CC(=O)O | 146%
CCOC(=O)N(C)c1ccc(C(O)(C(F)(F)F)C(F)(F)F)cc1 | 26%
CC(C)(C)C1=C(C#N)C(c2cc3c(cc2Br)OCO3)C(C#N)=C(N)O1 (stereo unspecified) | -8%
Cc1ccc2c(c1)c1c3n2CCN(C(=O)C2CC2)C3CCC1 (stereo unspecified) | 92%
CC(NC(=O)CNC(=O)OCc1ccccc1)C(=O)N1CC(O)CC1C(=O)OCc1ccccc1 (stereo unspecified) | 61%
Cc1cccc(-c2c3c(=O)n(C)c(=O)n(C)c3cn2C(C)C)c1 | 38%
COCCNC(=O)c1sc2nc(-c3ccccc3)cn2c1C | 11%
O=C(CCNc1ccc(F)c(Cl)c1)c1ccco1 | -15%
O=C(NCc1ccco1)c1cc(-c2cccc(Cl)c2)on1 | -4%
O=C(Nc1nnc(CCN2CCCCC2)s1)C1CCCCC1 | 46%
O=C(CSc1ncnc2c1oc1ccccc12)OCc1ccccc1 | 14%
COc1ccc(S(=O)(=O)N(C)CC(=O)N2CCCCC2)cc1Cl | 29%
Cc1cc(=O)[nH]c(SCC(=O)NCCOc2ccccc2)n1 | 7%
CS(=O)(=O)c1ccc2nc(NC(=O)c3ccco3)sc2c1 | -5%
CCN(CC)S(=O)(=O)c1ccc2oc(C(=O)NCc3ccc(F)cc3)c(C)c2c1 | 11%
CCOC(=O)c1sc(NC(=O)C(CC)Sc2nccn2C)nc1C (stereo unspecified) | 17%
O=C(NCCC1=CCCCC1)c1ccc2c(=O)n3c(nc2c1)CCCCC3 | 104%
CN1CCN(c2nc(-c3cccnc3)nc3ccccc23)CC1 | 31%&37%
CS(=O)(=O)N1CCC[C@@]2(CCN(c3ccccn3)C2)C1 | 15%
CCOc1ccc(OCc2cccc(C(=O)N3CCCC3)c2)cc1 | 76%
O=C(NCc1ccco1)C1CCN(S(=O)(=O)N2CCOCC2)CC1 | -10%
Cc1ccc(Cn2c(SCC(=O)Nc3cc(C)on3)nc3ccccc3c2=O)cc1 | 13µM*[single pt active]
CC1CCCCN1C(=O)CSc1nnc(-c2c[nH]c3ccccc23)o1 (stereo unspecified) | 49%
Cc1cn2c(-c3cccnc3)nnc2s1 | 2%
COc1ccccc1-c1nc(N2CCN(C)CC2)c2ccccc2n1 | -5%
Cc1ccccc1-c1cc(NCCN2CCOCC2)ncn1 | 11%

Next section
SMILES | AmpC nodet inh
Cn1c(C(=O)N2CCC(C(N)=O)CC2)cc2c(=O)n(C)c3ccccc3c21 | 23%
CCOP(=O)(c1c(F)c(F)c(F)c(F)c1F)C(O)c1ccccc1 (stereo unspecified) | 2%
CCOCCCNS(=O)(=O)c1ccc(NC(=O)c2ccccc2)cc1 | -12%
COc1ccc(N2CCN(C(=O)c3ccc4c(c3)OCO4)CC2)cc1 | 22%
O=C(O)/C=C\C(=O)N1Cc2cc3ccccc3nc2C1 | -9%[5.75 µM]
O=C(NCCc1ccc(F)cc1)N1CCOCC1 | 9%
COc1cc(NC(=O)C2CCCN2C(=O)OCc2ccccc2)cc(OC)c1 (stereo unspecified) | 30%
COc1ccc(OC)c(Nc2cc(C(=O)NCCCN3CCOCC3)c3ccccc3n2)c1 | 154%
CCOc1ccccc1NC(=O)Cn1nnc(C(=O)Nc2ccc(C)cc2)c1N | -11%
Cc1cc(NC(=O)Cn2nc(-c3ccccc3F)ccc2=O)ccc1-n1cnnn1 | 15%
Cc1nc2cc(N3CCOCC3)c(NC(=O)C3CC3)cc2c(=O)n1Cc1ccccc1 | 125%
COCCn1c(=O)c(-c2ccccc2)nc2cnc(Oc3ccccc3)nc21 | 41%
CCOC(=O)C1CCCN(c2c(N3CCc4ccccc4C3)c(=O)c2=O)C1 (stereo unspecified) | 4µM*[single pt active]
COc1ccc(OC)c(C(=O)CSc2nnc(-c3cccnc3)n2C)c1 | 6%
CCCCP(=O)(c1ccccn1)c1ccccn1 | 0%
O=c1c(-c2ccccc2)nc2cnc(N3CCOCC3)nc2n1Cc1ccc(F)cc1 | 14%
O=c1c(-c2ccc(Cl)cc2)nc2cnc(Oc3ccccc3)nc2n1C1CC1 | 6%
CC(C)(CNS(=O)(=O)c1ccc(Cl)cc1)N1CCCCC1 | -8%
CNC(=O)c1ccc2nc(NC(C)=O)sc2c1 | 7%
BrCC(Br)C1CCC(Br)C(Br)C1 (stereo unspecified) | -22%
Cc1ccc(-c2noc(CN(C(=O)CCN3C(=O)c4ccccc4C3=O)C(C)C)n2)cc1 | 91%
CCC(=O)N1CCN(CCN=Cc2c(O)n(C)c(=O)n(C)c2=O)CC1 | -4%
Cc1nc(SCC(=O)N2CCN(C(=O)c3ccco3)CC2)c2c(C)c(C)sc2n1 | 107%
CC(=O)N1CCc2c(sc(NC(=O)c3ccc4c(c3)OCCO4)c2C#N)C1 | 13%
COCCn1c(=O)c(-c2ccc(OC)cc2)nc2cnc(OC)nc21 | 51%
COc1ccc(CN2CCCCC2c2cccnc2)cc1C (stereo unspecified) | 8%
O=C(Nc1ccccc1)c1ccc(S(=O)(=O)N2CCCCC2)cc1 | -9%
CCNc1nc(Cl)nc(NC(C)C)n1 | -2%
CCCn1c(=O)c2ccccc2n2c(SCC(=O)NCc3cccs3)nnc12 | 23%
O=C(c1cccc(F)c1)n1nnc2ccccc21 | -1%
Cc1c(C(=O)O)oc2ccc(S(=O)(=O)N(CC(C)C)CC(C)C)cc12 | -12%
CCOC(=O)N1CCN(Cc2oc(CO)cc(=O)c2O)CC1 | -3%
CN1CCN(c2ncc3nc(-c4cccc(C#N)c4)c(=O)n(C[C@H]4CCCO4)c3n2)CC1 | 79%
CNC(=O)CC(C(=O)O)c1ccc(OCC(C)C)cc1 (stereo unspecified) | -10%
Cc1ccc(O)c(-c2cc(-c3ccccc3C)[nH]n2)c1 | 7%
CCc1nnc(NC(=O)C(NS(=O)(=O)c2ccc3c(c2)OCCO3)C(C)C)s1 (stereo unspecified) | 11%
O=C(O)CSCNC(=O)CC12CC3CC(CC(C3)C1)C2 | -14%
COc1ccc(C[C@H](C)NC[C@@H](O)c2ccc(O)c(NC=O)c2)cc1 | -3%
CCOC(=O)N1CCC(NC(=O)c2cc(C(=O)NCc3cccc(Cl)c3)ccc2CO)CC1 | 72%
CC(=O)Nc1ccc(OCC(O)CN2CCN(c3ccc(C)c(Cl)c3)CC2)cc1 (stereo unspecified) | 107%
Cc1cc2cc(CN(CCN3CCOCC3)C(=O)Nc3ccccc3F)c(=O)[nH]c2cc1C | 127%
Cc1nnc2n1-c1ccc(Br)cc1C(c1ccccc1Cl)=NC2 | 47%
O=S(=O)(c1ccccc1)N1CCC[C@@]2(CCN(c3ncccn3)C2)C1 | 42%
COc1ccc2c(c1OC)C(=O)N(c1cccc(C)c1)C2 | 19%
COc1cccc(-c2nnc(SCC(=O)N3CCCC3=O)n2-c2ccccc2)c1 | 101%
O=C(CCS(=O)(=O)c1cccs1)N1CCN(c2ccc(F)cc2)CC1 | 13%
O=C(NCc1ccc2c(c1)OCO2)c1cc(-c2ccccc2)on1 | -12%
CC(C)(C)NC(=O)C1CCN(C(=O)c2ccc(Br)cc2)CC1 | 19%
CCn1c(SCC(=O)Nc2cc(C)on2)nc2c1c(=O)n(C)c(=O)n2C | 3%
COc1ccc(Oc2ncc3nc(-c4ccc(OC)cc4)c(=O)n(CCC#N)c3n2)cc1 | 10%
c1ccc(OCc2nc3ccccc3s2)cc1 | -7%
Clc1ccc([C@H](Cn2ccnc2)OCc2csc3c(Cl)cccc23)c(Cl)c1 | 14%[12.8 µM]
CN(C)c1cc2c(Nc3ccc4c(cnn4Cc4ccccc4)c3)ncnc2cn1 | 78%
COc1ccc(C(NC(=O)CNC(C)=O)C(=O)Nc2ccc3c(c2)OCCO3)cc1 (stereo unspecified) | 14%
Cc1c(C(=O)NCc2ccc3c(c2)OCO3)oc2ccc(S(=O)(=O)N3CCC(C)CC3)cc12 | 4%
O=P(O)(O)Cc1ccccc1OP(=O)(c1ccccc1)c1ccccc1 | -10%
CCOc1cc2[nH]c(=O)n(CCCCC(=O)NC3CCCCCC3)c(=O)c2cc1OCC | 38%
O=C(CCS(=O)(=O)c1cccc2nsnc12)N1CC(=O)N(CCc2ccccc2)C(=O)C1 | 48%
Cc1nn2c(NCCCN3CCOCC3)c3c(nc2c1-c1ccccc1)CCC3 | 99%
COc1ccc(C(=O)Nc2cc(C)on2)cc1 | 8%

The list continues:
SMILES | AmpC nodet inh
CCCC(=O)Nc1cccc(NC(=O)CN2CCN(c3ccccc3OC)CC2)c1 | 86%
CCOc1ccc(-c2csc(NC(=O)C3CCCO3)n2)cc1 (stereo unspecified) | 46%
O=C(NCC(c1cccnc1)N1CCOCC1)c1ccco1 (stereo unspecified) | -14%
O=C(Cn1cnc2c(nnn2-c2ccc(F)cc2)c1=O)N1CCCc2ccccc21 | 9%
COc1ccc(C)cc1NC(=O)CN1CCN(c2ccccc2F)CC1 | 69%
O=C1c2oc3ccccc3c(=O)c2C(c2cccnc2)N1Cc1ccco1 (stereo unspecified) | 6%
CCSc1cc(C2C(C#N)=C(N)Oc3n[nH]c(C)c32)c(C)o1 (stereo unspecified) | 8%
Cn1c(=O)[nH]c(=O)c2c1nc(Br)n2Cc1ccccc1F | -10%
CN1C2C=C(N(C(=O)c3ccc(Cl)cc3)c3ccccc3)CC1CC2 (stereo unspecified) | 22%
